Screens (PubChem BioAssay)
gsp antagonist: gsp mutant antagonism. AID 624288. Potency, µM (doses to about 76.9 µM), inactives show at the highest dose activity change, negative = inhibition, usual class: inhibitors. gsp-mutant cells, cAMP HTRF, 30 min; control for the full effect not named in the record. 340,000 compounds, 0.4% hits; active = falling curve of any shape with a large fitted effect; inconclusive = falling curve, mostly with a smaller effect; inactive = flat or rising curve; cell line not stated here;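 also: intracellular cAMP measured with PDE inhibitor Ro 20-1724 present during compound exposure; potency is read from the fitted curve at half-maximal effect; % is scaled to controls: 0 for no effect and ±100 for the full control effect; nearly all actives have a fitted effect of over 65% in size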
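HTRF cAMP read-out (cAMP-d2 plus anti-cAMP antibody-K in lysis buffer, 30 min RT). Before lysis, cells are exposed to compounds with […] for 30 min at 37C in DPBS containing Ca/Mg, BSA and Tween 20.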
ClpP mod: qHTS Assay for Activators of ClpP; ATP-dependent Clp protease proteolytic subunit (Bacillus subtilis (strain 168)), P80244; purified B. subtilis ClpP, FRET peptide cleavage, 20 min; Potency, µM (highest dose often 57.5 µM), for the others: at the top dose activity change, negative = active; 340,000 compounds, 1.9% hits; active = well fitted falling curve with a large enough effect; inconclusive = small, poorly fitted or top-dose-only effect; inactive = no such curve, though single readings can be large or run the other way; also: potency is read from the fitted curve at half-maximal effect; the source files actives as falling curves though it sought activators and does not explain the sign; nearly all actives have a fitted effect of over 65% in size; many hits overshoot -100%
Target sequence (P80244 whole entry, looked up): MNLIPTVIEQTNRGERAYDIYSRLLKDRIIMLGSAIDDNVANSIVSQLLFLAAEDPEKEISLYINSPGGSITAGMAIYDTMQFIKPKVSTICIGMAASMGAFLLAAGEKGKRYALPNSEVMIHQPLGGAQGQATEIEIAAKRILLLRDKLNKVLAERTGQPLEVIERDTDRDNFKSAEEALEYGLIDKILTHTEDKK
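ClpP 10 microg/mL final, pH 8 Tris/KCl buffer with BSA, glycerol, Tween-20; compound pinned in; FRET-FV substrate; RT 20 min; Ex320/Em430; ΔFRET vs ADEP 5.8 microM, DMSO, no enzyme.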
PINK1 modulator: modulators of PINK1 expression; PINK1 immunofluorescence, high-content cytometry, 24 h; Potency, µM (titrated, usually from 76.6 µM), without a hit: at the top dose activation (PINK1 increase), usual class: activators; 410,000 compounds, 0.2% hits; AID 624263; active = well fitted activation curve with a large enough effect; inconclusive = small, poorly fitted or top-dose-only effect; inactive = flat fitted curve, though single readings scatter; cell line not stated here;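 also: potency is read from the fitted curve at half-maximal effect; % of control where 0% means no effect; nearly all actives have a fitted effect of over 65% in size; a mitochondrial uncoupler was the plate control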
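Stable cell line treated 24 h with compounds at 5 concentrations (CCCP controls), then fixed and immunostained for PINK1 plus nuclear and cell stains; PINK1 immunofluorescence quantified by laser-scanning microplate cytometry.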
gsp ag: activates gsp, the McCune-Albright syndrome mutation | gsp mutant cells, cAMP HTRF, 30 min; control for the full effect not named in the record | Potency, µM (series often up to 76.9 µM), inactives show top-dose activation (cAMP increase), actives largely listed as activators | AID 624287 | 340,000 compounds, 0.13% hits; active = well fitted activation curve with a large enough effect; inconclusive = small, poorly fitted or top-dose-only effect, or another doubt; inactive = no such curve, though single readings can be large or run the other way; cell line not stated here;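 also: phosphodiesterase inhibitor Ro 20-1724 added with compounds to block cAMP breakdown; potency is read from the fitted curve at half-maximal effect; nearly all actives have a fitted effect of over 60% in size; about a fifth of the inactives were tested at one dose only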
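Cells stably selected in G418 were plated at 2000/well, grown 16-24 hr, then given compounds in DMSO with the PDE inhibitor […] (300 uM solution added) for 30 min at 37C; cAMP was read by HTRF.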
Menin-MLL FL inh: menin-MLL binding inhibition, fluorescein peptide. Fluorescence polarization, fluorescein-MLL peptide displacement from menin. AID 1766. 290,000 tested, under 10 active. FP activity change, % at 61.4 µM; inconclusive = falling polarisation curve, or a change in total fluorescence; inactive = total fluorescence flat and polarisation flat or rising; no compound was filed as active; the % refers to the polarisation; negative = inhibition;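 also: % of control where 0% means no effect; inhibitors lower the polarisation; unlabelled MLL peptide was the positive control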
D2 ag: human D2 receptor agonism in beta-arrestin assay; P14416; DiscoveRx PathHunter D2 beta-arrestin, luminescence, 90 min; 100% = 57 uM dopamine signal; activation, % (test concentration not listed); 360,000 compounds, 0.084% hits; AID 624465; in the data active = activation above about 40%; inconclusive = about 15% to 40%; inactive = below about 15%; also: compound concentration not given in the record; the text of the record calls up to 30% inactive
Target sequence (P14416 whole entry, looked up): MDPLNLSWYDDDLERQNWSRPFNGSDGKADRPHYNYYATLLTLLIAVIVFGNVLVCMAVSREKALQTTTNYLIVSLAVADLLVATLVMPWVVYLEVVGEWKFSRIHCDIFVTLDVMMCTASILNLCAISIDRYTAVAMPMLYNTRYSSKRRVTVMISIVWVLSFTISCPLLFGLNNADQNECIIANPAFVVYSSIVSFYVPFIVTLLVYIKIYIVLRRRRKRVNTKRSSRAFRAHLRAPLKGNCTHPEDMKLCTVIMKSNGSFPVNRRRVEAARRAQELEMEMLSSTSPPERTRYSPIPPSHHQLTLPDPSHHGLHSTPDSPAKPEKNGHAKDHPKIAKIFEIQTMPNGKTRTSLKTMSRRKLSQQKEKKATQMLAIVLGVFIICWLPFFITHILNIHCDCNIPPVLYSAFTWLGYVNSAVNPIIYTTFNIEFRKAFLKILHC
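DiscoveRx PathHunter D2 beta-arrestin cells (2,100/well) attached overnight, then compound-stimulated 90 min at 37 C in HBSS/10 mM HEPES/0.1% Tween-20 buffer; beta-galactosidase complementation read by luminescence after 1 h at ambient temperature. Dopamine 57 uM final (EC100) as control.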
Sfp inh: Sfp phosphopantetheinyl transferase inhibition. Potency, µM, inactives show max response, negative = inhibition, hits mostly inhibitors. Biochemical Sfp PPTase activity, qHTS. 310,000 compounds, 3.5% hits. Q9F4F7; active = well fitted inhibition curve with a large enough effect; inconclusive = small, poorly fitted or top-dose-only effect, or another doubt; inactive = no such curve, though single readings can be large or run the other way;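 also: the enzyme is Sfp with the accession as filed and its product quenches rhodamine fluorescence; potency is read from the fitted curve at half-maximal effect; 0% = enzyme reaction without inhibitor and -100% = no enzyme wells; top concentration of the series not given in the record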
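Step 1, compound plus 15 nM Sfp-PPTase, 15 min, room temperature. Step 2, add rhodamine-CoA (5 uM) and BHQ-2-YbbR (12.5 uM). Step 3, read 525/598 nm fluorescence at 0 and 30 min.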
* marks the source's active call; other numbers are inactive results; ? = inconclusive; . = no result given; & = joins results of further samples; [ ] = dose if it differs, or a comment.

SMILES	gsp antagonist	ClpP mod	PINK1 modulator	gsp ag	Menin-MLL FL inh	D2 ag	Sfp inh
CN1CCN(C(=O)CN2C(=O)NC(C)(c3ccc4ccccc4c3)C2=O)CC1 (stereo not drawn)	15.0%	-0.9%	0.2%	-17.0%	.	-0.5	.
Nc1nnc(SCC(=O)Nc2cc(S(=O)(=O)N3CCOCC3)ccc2N2CCCC2)s1	9.1%	0.7%	-0.8%	20.1%	.	-2.1	.
COC(=O)c1cc(OC)c(OC)cc1NC(=O)C1CCCO1 (stereo not drawn)	-0.5%	20µM*	5.9%[38.3 µM]	12.1%	3.6	1.2	7.6%
O=C(Nc1cccc(F)c1)C1CCN(C(=O)c2ccc(Br)cc2)CC1	-2.6%	1.2%	-2.2%	-54.3%[inhibitor]	-0.3	-2.9	8.3%
C=CCNC(=S)Nc1c(C(=O)OC)[nH]c2cc(OC)ccc12	10.6%	12.3%	7.3%	?	-0.1	-4.1	-4.3%
Cc1cc(C(=O)N/N=C/c2ccc(C)s2)n[nH]1	-4.0%	.	0.9%	-3.1%[15.4 µM]	1.7	-0.8	15.2%
CN(C[C@H](c1ccccc1)N(C[C@H](Cc1ccccc1)N(CCc1ccccc1)N=O)N=O)N=O	-17.7%	-1.6%	-0.7%	.	-2.2	-1.8	17.5%
COc1ccc(/C(C)=N\Nc2nc(-c3ccc(Cl)cc3)cc(C(F)(F)F)n2)cc1OC	-7.2%	3.1%	15.8%	-16.2%	2.4	-0.7	-19.6%
CS(=O)(=O)c1ccccc1C(=O)Nc1cccc(-c2nc3ccccc3o2)c1	-14.4%	-3.0%	1.9%	-86.1%[inhibitor]	0.1	-1.0	11.3%
COc1ccc2nc(NCCCO)[nH]c2c1	2.4%	-1.2%	-1.8%	-4.6%	-1.2	-0.2	6.3%
O=C(CN1CCCCCCC1)N/N=C/c1ccc([N+](=O)[O-])o1	-2.4%	.	7.1%	?	4.6	10.4	?
CCOC(=O)C1=C(C)NC(C)=C(C(=O)OC)C1c1cccc([N+](=O)[O-])c1 (stereo not drawn)	-2.3%	2.2%	4.3%&-0.6%	.	-0.3&0.0&-2.0&-1.2&-3.0	-2.9	-12.4%&8.4%&12.3%&-4.2%&1.6%
O=C(NCC(O)c1ccc([N+](=O)[O-])cc1)C1CCCCC1 (stereo not drawn)	3.9%	-2.0%	0.6%	1.6%	-0.6	-7.1	-2.4%
Cc1cccc(N2CCN(S(=O)(=O)c3ccc(Cl)nc3)CC2C)c1 (stereo not drawn)	-13.8%	-0.2%	-1.4%	20.8%[15.4 µM]	.	0.6	.
Cc1ccccc1CSc1nnc([C@@H]2CCCN2)o1	6.4%	.	3.3%	?	4.3	-2.3	14.7%
COc1ccc2c(c1OC)CN(C)CCc1cc3c(cc1C(O)C2)OCO3 (stereo not drawn)	7.9%	-1.5%	-1.7%	?	3.7	-1.2	6.6%
Cc1c(OC(C)C(=O)NCCCN2CCOCC2)ccc2c3c(c(=O)oc12)CCC3 (stereo not drawn)	5.7%	3.7%	-0.1%	12.5%	.	0.4	11.0%
Nc1cccc2c1C(=O)N(c1ccccc1)C2=O	-1.9%	-23.6%	0.9%	-0.7%	.	-2.8	.
CCOc1ccc(N(CC(=O)Nc2ccc(OC)cc2)S(=O)(=O)c2c(C)[nH]c(=O)[nH]c2=O)cc1	10.5%	.	2.3%	20.4%	0.6	0.9	18.5%
COc1ccccc1C1C2=C(COC2=O)Nc2cc3c(cc21)OCO3 (stereo not drawn)	3.8%	0.9%	.	31.3%	4.7	-1.2	-23.3%
Cc1nonc1NC(=O)CSc1nc(C23CC4CC(CC(C4)C2)C3)nc2ccccc12	-28.6%	-1.8%	11.4%	-2.6%	5.8	-1.8	15.8%
CCNC(=O)N(C)c1c(CC)nc2ccc(C(=O)N3CCN(C(=O)c4ccco4)CC3)cn12	.	0.0%	0.3%	.	.	-0.8	.
Cc1nc(NC(=O)CCl)sc1C(=O)N(C)C	-5.1%	0.1%	17.4%	-45.1%	1.6	-4.4	3.7%
Cc1ccc(S(=O)(=O)N(C)c2nonc2C)cc1	-8.4%	-0.9%	0.5%	-1.0%	2.8	-1.6	-8.1%
O=C(CNC(=O)c1ccccc1)OC1CCCCC1	-4.5%	.	5.6%	2.2%[15.4 µM]	0.3	5.5	4.7%
CC(=O)c1sc(NC(=O)CCS(=O)(=O)c2ccc(C)cc2)nc1C	7.8%	-4.8%	-4.9%	?	.	3.7	.
CCCN(C(=O)Cn1ncc2c([nH]c3ccccc32)c1=O)c1ccccc1C	-0.1%	-11.6%	2.3%	-5.3%	.	-3.9	8.7%
O=C(CS(=O)c1ccc(F)cc1)Nc1ccccc1Cl (stereo not drawn)	9.8%	.	-0.9%	-8.8%[15.4 µM]	0.9	4.7	9.9%
Cc1ccc(S(=O)(=O)N2C(=O)CCC2C(=O)N2CCN(C)CC2)cc1 (stereo not drawn)	13.5%	-0.9%	1.7%[38.3 µM]	1.7%	3.7	-4.1	-1.1%
Cc1ccc2nc(-c3cccc(Br)c3)c(Cc3ccccc3)n2c1	.	?	1.4%	.	.	-6.2	.
NC1=NN(c2cccc(C(=O)O)c2)C(=O)C1	1.7%	0.7%	-2.4%	3.2%	0.6	-1.0	?
Cc1ccc(S(=O)(=O)SCCCSS(=O)(=O)c2ccc(C)cc2)cc1	-20.3%	1.9%	0.9%	-0.3%	.	-0.4	.
COc1cc(C(O)P(=O)(OCC(C)C)c2ccc(N(C)C)cc2)cc(OC)c1OC (stereo not drawn)	4.2%	0.5%	-0.6%	-6.5%[15.4 µM]	2.8	-1.5	13.6%
CC(C)COc1ccc(C(=O)N/C(=C/c2cccc([N+](=O)[O-])c2)C(=O)O)cc1	-7.9%	1.7%	1.5%	-21.2%	0.2	-3.6	0.9%
COC(=O)CS(=O)(=O)c1ccc(C)cc1	-21.1%	-1.9%	3.9%	17.7%[15.4 µM]	-2.0	-4.5	-18.2%
COc1cc(S(=O)(=O)N2CCOCC2)ccc1NC(=O)COC(=O)CC12CC3CC(CC(C3)C1)C2	-7.4%	1.7%	-3.3%	-6.0%	-4.6	-3.8	4.6%
CC(=O)N1CCC(N(CCN2CCOCC2)C(=S)Nc2c(C)cccc2C)CC1	10.7%	-0.7%	0.5%	0.6%	-1.3	0.2	10.9%
O=C(NNC(=O)c1cc2ccccc2o1)c1ccc(F)cc1	6.8%	-2.0%	0.7%	-4.9%[15.4 µM]	.	-2.2	.
Cc1cc(C)nc(N/N=C/c2c[nH]c3ccccc23)n1	-17.9%	.	1.8%	2.6%	4.4	0.9	20.5%
COc1ccccc1N(CC(=O)Nc1ccc(C)cc1Cl)S(=O)(=O)c1cccs1	-29.3%	.	11.9%	-10.5%	.	-2.2	.
O=C(COc1cccc2c1CCN(Cc1ccccc1F)C2=O)N1CCCCC1	16.3%	.	5.5%	5.5%[15.4 µM]	-0.5	2.0	10.1%
O=[N+]([O-])c1ccccc1S(=O)(=O)NC1CCCCCCC1	-5.8%	.	1.0%	14.4%	2.4	-0.8	17.9%
O=C(Nc1ccc2c(c1)CCC2)C1CCCO1 (stereo not drawn)	5.0%	-26.6%	3.0%[38.3 µM]	-8.7%	2.1	-0.1	7.2%
COc1ccc(/C(C)=N/Nc2nc3ccccc3nc2C)cc1OC	-26.2%	0.6%	1.0%	7.1%[15.4 µM]	5.2	-4.4	0.1%
CC1CCN(CC(O)COC2CC(C)CCC2C(C)C)CC1 (stereo not drawn)	9.9%	1.1%	2.0%	7.0%	-2.2	-1.2	-2.0%
Cn1nc(-c2ccccc2)c(CSc2cccc(Cl)c2)c1Cl	-11.0%	1.8%	10.6%	-12.8%	3.7	-4.6	-7.5%
COc1ccc(C)cc1N(CC(=O)NCCSCc1cccc(Cl)c1)S(C)(=O)=O	-19.9%	0.3%	-0.2%	-2.1%[15.4 µM]	3.6	-4.1	4.0%
Cc1cc(C(F)(F)F)n(-c2ccc(N)cc2)n1	-11.7%	-1.8%	2.0%	-3.4%[15.4 µM]	-10.9	-1.1	-4.2%
O=C1OC(/C(=C\NCc2ccccc2)[N+](=O)[O-])c2ccccc21 (stereo not drawn)	5.4%	.	-0.2%	-0.5%[15.4 µM]	1.2	-8.7	8.4%
Cc1onc(-c2c(Cl)cccc2Cl)c1NC(=O)N1CCSCC1	15.3%	0.7%	0.6%	8.8%[15.4 µM]	-0.8	0.9	18.1%

The listing continues:
SMILES	gsp antagonist	ClpP mod	PINK1 modulator	gsp ag	Menin-MLL FL inh	D2 ag	Sfp inh
C=CCn1c(O)c(N=Nc2ccccc2O)c2ccccc21	-4.6%	0.1%	-0.2%	.	.	-5.6	.
c1ccc(CNc2nc(-c3ccoc3)nc3ccccc23)cc1	.	.	4.8%	.	?	.	-19.2%
O=C1NC(=O)C2(CCCCCCCCCCC2)N1	7.4%	.	0.2%	4.6%[15.4 µM]	.	-2.2	16.7%
CCOC(=O)c1sc(=S)n(-c2cc(OC)ccc2OC)c1N	4.4%	1.2%	0.1%	1.8%	2.1	-3.6	-89.3%
COc1ccc(C)cc1NC(=O)C(Sc1nnc(-c2ccncc2)n1-c1ccc(Cl)cc1)c1ccccc1 (stereo not drawn)	-23.8%	.	5.9%	-43.4%[15.4 µM]	2.2	-3.8	2.1%
C=CCNC(=O)C1CC(=O)N(c2ccc(OCC(=O)Nc3cccc(OC)c3)cc2)C1 (stereo not drawn)	2.7%	0.1%	?	1.8%	1.2	1.6	20.7%
CCc1ccc(NCCC(=O)c2ccc(Cl)cc2)cc1	2.9%	0.5%	.	0.3%	2.5	-5.0	18.3%
CCOC(=O)c1ccc(N2C(=O)CC(N3CCC(C(N)=O)(N4CCCCC4)CC3)C2=O)cc1 (stereo not drawn)	7.9%	0.8%	0.4%[38.3 µM]	?	0.3	-1.0	13.9%
O=C(Cc1cccs1)NCCCc1ccccc1	-0.7%	.	-0.7%	8.5%	0.1	3.1	4.2%
